# Screening data as filed in PubChem BioAssay.
# nsP2pro inh = blocks chikungunya virus nsP2 protease peptide cleavage | Q8JUX6 | FRET peptide cleavage, nsP2pro, fluorescence 1 h | Potency, µM (titrated, usually from 24.9 µM), inactives show at the highest dose activity change, negative = inhibition, most hits filed as inhibitors | actives 1.1% (n = 31,000); active means well fitted inhibition curve with a large enough effect; inconclusive means small, poorly fitted or top-dose-only effect; inactive means no such curve, though single readings can be large or run the other way; note: nearly all actives have a fitted effect of over 60% in size; a reference inhibitor and vehicle were the controls
# * = called active by the depositor; i = inactive; ? = inconclusive; & = joins results of further samples; [ ] = remark or other dose. % is set by controls: 0 for no effect and ±100 for the full control effect; potency is the fitted concentration of half-maximal effect. The list is partial; count on the stated rates, not on these rows.
SMILES,nsP2pro inh
COCCn1c(C)cc(O)c(C(c2ccccc2OC)N2CCN(c3ccccc3)CC2)c1=O (stereo unspecified),?
CC(=O)[C@@]1(O)CC[C@H]2[C@@H]3CCC4=CC(=O)CC[C@@H]4[C@H]3CC[C@@]21C,-3%
CC(C)=CCC/C(C)=C/CO,-9%
CN1C(=O)COC[C@@H]1[C@H](O)c1ccc(NS(=O)(=O)c2ccc(F)cc2)cc1,2%[39.2 µM]
C=C1C(OC(C)=O)C(=O)C2C(C)(C)C(O)CCC2(C)C1CC(OC(C)=O)/C(C)=C/COC(C)=O (stereo unspecified),22%[10 µM]
O=C1N(Cc2ccccn2)C[C@H]2CN(Cc3nccs3)CCN12,i
Cc1cc2c(s1)c1cnn(Cc3cc(Cl)ccc3F)c(=O)c1n2C,-2%
CCCCCCCCCCCCCC[n+]1ccc(C)cc1,164%[activator]
O=C(/C=C/c1cccnc1)Nc1cccc([S+](=O)([O-])Nc2ccccc2F)c1,i
CO[C@@H]1COCC[C@H]1NC(=O)c1cn(CCN2CCNCC2)nn1,-12%
CCc1ccc(-n2nc(C)c3c(C(=O)N4CCN(c5cccc(Cl)c5)CC4)cc(C)nc32)cc1,-23%
NC(=O)C1CCN(c2ncc(Br)cn2)CC1,-1%
CN1CCc2c(sc3c2C(=O)NC(c2ccc(OC(=O)c4ccc(C(C)(C)C)cc4)cc2)N3)C1 (stereo unspecified),-22%
OC[C@H]1OC(O)C[C@@H](O)[C@@H]1O (stereo partly specified),20%
C=C[C@@]1(C)CCC2=C([C@H]1OC(C)=O)[C@H](OC(C)=O)CC1[C@](C)(C(=O)OC)CC[C@H](OC(C)=O)[C@]21C (stereo partly specified),4%[10 µM]
CC(C)c1ccc(NC(=O)c2ccc(Cn3nc(N4CCN(c5ccccc5)CC4)ccc3=O)o2)cc1,-25%
O=S(=O)(NC1CCC(CNS(=O)(=O)c2c(F)cccc2F)CC1)c1ccc2c(c1)OCCO2 (stereo unspecified),3%
COCC[C@]1(O)CCN(C(=O)CCCc2ccccc2)C[C@H]1C,i
COc1cc(O)c(C(CC(=O)N2CCCCCC2)c2ccc3c(c2)OCO3)c(OC)c1 (stereo unspecified),-3%[39.2 µM]
C[C@@H]1O[C@@H](O[C@@H]2[C@@H](O)[C@H](O[C@@H]3[C@@H](O)[C@@H](O)[C@H](O[C@H]4[C@H](OC(=O)[C@]56CCC(C)(C)C[C@H]5C5=CCC7[C@@]8(C)C[C@H](O)[C@H](O[C@@H]9O[C@H](C(=O)O)[C@@H](O)[C@H](O)[C@H]9O)[C@@](C)(CO)C8[C@H](O)C[C@@]7(C)[C@]5(C)C[C@H]6O)O[C@@H](CO)[C@@H]4O)O[C@H]3C)OC[C@H]2O)[C@H](O)[C@H](O)[C@H]1O (stereo partly specified),3%[5.1 µM]
CCOc1ccccc1CN1CCC2(Cc3ccccc3CNC2=O)C1 (stereo unspecified),-3%
FC(F)(F)c1cc(-c2ccc(CNc3nc(-c4ccccc4C(F)(F)F)nc4ccsc34)cc2)ccn1,i
CC1=Nc2cc(C(=O)NC3CCCC3)ccc2Sc2ccc(Cl)cc21,-21%
Cc1cnc(-c2ccccc2C(C)C)nc1NCC1CCN(c2cccnc2)CC1,?
COc1cc([C@@H]2c3cc4c(cc3C(O[C@@H]3O[C@@H]5CO[C@@H](c6cccs6)OC5[C@H](O)[C@H]3O)C3COC(=O)[C@@H]32)OCO4)cc(OC)c1O (stereo partly specified),20%
O=C(NCc1ccccc1)C(=O)NCC(c1ccco1)S(=O)(=O)c1ccc(Cl)cc1 (stereo unspecified),-34%
CC(C)Cn1c(SCc2cccc(F)c2)nc2ccsc2c1=O,-8%
COc1ccc(NC(=O)CN(C)S(=O)(=O)c2ccc3c(c2)CCCN3C(C)=O)cc1,-16%
O=C(Nc1ccc(Br)cc1)c1ccc(Br)c(S(=O)(=O)N2CCCCC2)c1,-4%
Cc1ccc(CCNC(=O)c2ccc3nc(N4CCC(C)CC4)sc3c2)cc1,-22%

# The last 3 entries of the part above come first, to join the parts.
SMILES,nsP2pro inh
COc1ccc(NC(=O)CN(C)S(=O)(=O)c2ccc3c(c2)CCCN3C(C)=O)cc1,-16%
O=C(Nc1ccc(Br)cc1)c1ccc(Br)c(S(=O)(=O)N2CCCCC2)c1,-4%
Cc1ccc(CCNC(=O)c2ccc3nc(N4CCC(C)CC4)sc3c2)cc1,-22%
O=C(C1CCN(S(=O)(=O)c2cccc3nonc23)CC1)N1CCN(c2cccc(Cl)c2)CC1,-12%
CC[C@@H](C)[C@H]1O[C@]2(CC[C@@H]1C)C[C@@H]1C[C@@H](C/C=C(\C)[C@@H](O[C@H]3C[C@H](OC)[C@@H](O[C@H]4C[C@H](OC)[C@@H](O)[C@H](C)O4)[C@H](C)O3)[C@@H](C)/C=C/C=C3\CO[C@@H]4[C@H](O)C(C)=C[C@@H](C(=O)O1)[C@]34O)O2,?
CN1CCCCCCN(C(=O)c2cc(CN3CCOCC3)on2)[C@H]2CCC[C@H]2C1=O,-15%
NS(=O)(=O)c1cc2c(cc1Cl)NC(C(Cl)Cl)NS2(=O)=O (stereo unspecified),-4%
O=C(c1cccc([N+](=O)[O-])c1)N1c2nc(-c3ccco3)nn2C2(CCCCC2)[C@@H]2CCCC[C@@H]21,?
CCn1c(=O)n(CC)c2cc(N3CCCC3)c(NC(=O)Nc3cc(C)cc(C)c3)cc21,-18%
C[C@H](N)C(=O)N[C@@H](Cc1ccc(O)cc1)C(=O)N1CCC[C@H]1C(=O)NCC(=O)N[C@@H](CCCCN)C(=O)N[C@@H](Cc1ccccc1)C(N)=O,-5%[5.1 µM]
CC(=O)NCc1cc(Cl)c2cccnc2c1O,i
CCOc1cccc(-c2cc(-c3n[nH]c(=S)n3CC)c3ccccc3n2)c1,i
COc1cc2[nH]c(=O)n(CCCC(=O)N3CCN(c4cccc(C(F)(F)F)c4)CC3)c(=O)c2cc1OC,-12%
CC(=O)O[C@H]1[C@@H](O)[C@H](O[C@H]2[C@@H]3C=CO[C@@H](O[C@H]4O[C@@H](CO)[C@H](O)[C@@H](O)[C@@H]4O)[C@@H]3[C@@]3(CO)O[C@@H]23)O[C@@H](C)[C@@H]1OC(=O)/C=C/c1ccccc1,16%[10 µM]
C[C@H]1CC[C@@]2(OC1)O[C@H]1CC3C4CC[C@H]5C[C@@H](O)CC[C@]5(C)C4=CC(=O)[C@]3(C)[C@H]1[C@@H]2C (stereo partly specified),25%[10 µM]
Cc1ccc(Sc2c(C)nn(C(C)(C)C)c2OC(=O)CC(C)C)cc1,-19%
COCc1ncc(C)n1CCNC(=O)c1ccc(OC)nc1OC,3%
c1ccc(-c2ncc3c(n2)C[C@@H]2CC[C@H]3N2)cc1,0%
CCN(CC)C(=S)S,?
COc1ccccc1-c1ccc(C(=O)N2CCC(N[S+](=O)([O-])c3ccccc3)CC2)cc1,i
C[S+](=O)([O-])N1CCC2(CC1)C(=O)NN=C2c1ccccn1,1%[39.2 µM]
Brc1ccc(CN2CCc3nc(Nc4ccccc4)ncc3C2)s1,?
COc1ccc(C(=O)Oc2c(Sc3ccccc3)c(C)nn2-c2ccccc2)c(OC)c1,-19%
COc1cccc(OC)c1C(=O)N[C@@H]1C(=O)N2[C@@H]1SC(C)(C)[C@@H]2C(=O)O,2%&-7%
CCN(CC)c1ccc(-c2nc(-c3ccccn3)no2)cc1[N+](=O)[O-],-13%
CCOc1ccc(N(CC)S(=O)(=O)N2CCCC(C(=O)NCCc3ccccc3OC)C2)cc1 (stereo unspecified),-16%
COc1ccc(C(=O)NC[C@H]2O[C@@H](CC(=O)Nc3ccccc3)[C@H](O)[C@@H]2O)cc1,i
Cc1cccc(-n2cnc3cc(C(=O)N4CCC(C#N)CC4)ccc32)c1,1%
CN(C)c1ccc(CN2CCC(Oc3ccc(Cl)cc3)(C(=O)O)CC2)cn1,-19%
O=C(Nc1ccc(Cl)c(Cl)c1)Nc1ncc(-c2ccncc2)s1,-1%
CC(C)CN(C[C@@H](O)[C@H](Cc1ccccc1)NC(=O)O[C@H]1CCOC1)S(=O)(=O)c1ccc(N)cc1,-21%&-5%&-1%
C=C1[C@H](CO)[C@@H](O)C[C@@H]1n1cnc2c(=O)[nH]c(N)nc21,-10%&-11%&-5%
Cc1ccc(C(=O)N2CCC(C(=O)N3CCC(N4CCCC4=O)CC3)CC2)cc1,2%

# Reprinted from the part before: six compounds, then new ones.
SMILES,nsP2pro inh
Cc1cccc(-n2cnc3cc(C(=O)N4CCC(C#N)CC4)ccc32)c1,1%
CN(C)c1ccc(CN2CCC(Oc3ccc(Cl)cc3)(C(=O)O)CC2)cn1,-19%
O=C(Nc1ccc(Cl)c(Cl)c1)Nc1ncc(-c2ccncc2)s1,-1%
CC(C)CN(C[C@@H](O)[C@H](Cc1ccccc1)NC(=O)O[C@H]1CCOC1)S(=O)(=O)c1ccc(N)cc1,-21%&-5%&-1%
C=C1[C@H](CO)[C@@H](O)C[C@@H]1n1cnc2c(=O)[nH]c(N)nc21,-10%&-11%&-5%
Cc1ccc(C(=O)N2CCC(C(=O)N3CCC(N4CCCC4=O)CC3)CC2)cc1,2%
O=[N+]([O-])C(Br)(CO)CO,2.5µM*
O=C(c1ccc[nH]1)c1cc(Cl)ccc1NC(=O)[C@@H]1CCCN1,-3%
Cc1noc(C)c1-c1ccc2ncnc(NCc3ccccc3F)c2c1,0%
Cc1ncc2c(c1CNC(=O)c1ccc(OC(F)F)cc1)CCNC2,-2%
CC1=C(C(=O)Nc2ccccc2)C(c2cc(C)ccc2C)N2C(CC(=O)NC(C)C)=CSC2=N1 (stereo unspecified),-17%
COc1ccc(OC2CN(Cc3ccsc3)C2)cc1,-2%[39.2 µM]
COc1cc2c(cc1O)CC(O)(CO)C(CO)C2c1ccc(OC2OC(CO)C(O)C(O)C2O)c(OC)c1 (stereo unspecified),31%[10 µM]
CC(C)Oc1ccc2c(NC(=O)c3ccc(=O)n(C)n3)nn(CC(F)(F)F)c2c1,-5%
Cc1c(Cc2ccc3ccccc3n2)c2cc(F)ccc2n1CC(=O)O,?
COc1ccc(Cl)cc1NS(=O)(=O)c1ccc2[nH]c3c(c2c1)CCCC3,?
COc1cccc(NS(=O)(=O)c2cc(-c3cnc(C4CC4)o3)ccc2C)c1,2%
COCCOCC(=O)N1CCC(N2C(=O)CCC2C(=O)NCc2ccccc2)CC1 (stereo unspecified),-3%
CC(O)c1cc2n(n1)CCCN(c1ncnc3ccsc13)C2 (stereo unspecified),-1%
CCOC(=O)c1ccc(NC(=O)CSc2nc(-c3ccc(F)cc3)cc(C(F)(F)F)c2C#N)cc1,-16%
CC(C)CCN1CCC2(CC1)COc1ccccc1C(=O)N2,-25%[39.2 µM]
C[C@@](O)(COc1ccc(C#N)cc1)C(=O)Nc1ccc(C#N)c(C(F)(F)F)c1,-3%
Cc1ccc(-c2noc(C(C)NS(=O)(=O)c3ccc(C)cc3)n2)cc1 (stereo unspecified),-10%
COCC(NC(=O)c1ccc2nc(C3CCCCC3)oc2c1)c1ccnn1C (stereo unspecified),-5%
CC(=O)Nc1ccc(CN2CC(Oc3ccc4c(c3)OCO4)C2)cc1,2%
Cc1ccc(-n2nc(C(=O)N3CCN(c4cccc(C(F)(F)F)c4)CC3)c(=O)n(C)c2=O)cc1,-3%
CCc1ccccc1NC(=O)Cn1c(=O)n(-c2ccc(C)cc2)c(=O)c2cc(OC)c(OC)cc21,-16%
CCCn1c(C)c(CC(=O)NCC2COCCO2)c2c1CC(C)(C)CC2=O (stereo unspecified),-9%
Cc1oc(-c2cccc(Cl)c2)nc1CSc1nncn2c1cc1occc12,-21%
Cc1cc(C)cc(NC(=O)Cn2c(-c3cnccn3)nc(C)c(C)c2=O)c1,i
CCc1cccc(CC)c1-n1c(C=C(C)C)c(C(=O)N2CCNCC2)cc(-c2nc(-c3ccc(C(F)(F)F)cc3)cs2)c1=O,104%[activator][10 µM]
Cn1ccc2cc(-c3csc(N4CCC(C(N)=O)CC4)n3)ccc21,i
CC(C)(C)N[S+](=O)([O-])c1cccc(-c2nnc(SCc3ccc(C(=O)O)cc3)n2-c2ccc(F)cc2)c1,i
COC(=O)c1ccccc1O[C@@H]1O[C@H](CO[C@@H]2OC[C@@H](O)[C@H](O)[C@H]2O)[C@@H](O)[C@H](O)[C@H]1O,106%[activator][10 µM]
CC(=O)N1CCn2c(nnc2C2CCCN2Cc2ccc(F)cc2F)C1 (stereo unspecified),1%
CCOC(=O)c1ccc(NC(=O)CCS(=O)(=O)c2ccc3c(c2)oc(=O)n3C)cc1,-10%
CCOc1ccc(CN2C(=O)c3ccccc3C2C(=O)NCCc2ccc(OC)c(OC)c2)cc1 (stereo unspecified),-15%
CC(NC(=O)CSc1n[nH]c(-c2ccccc2Cl)n1)c1nc2ccccc2[nH]1 (stereo unspecified),-4%
CCS(=O)(=O)N1C[C@@H](C(=O)NCc2ccc(C)o2)[C@H](c2ccncc2)C1,-27%
O=C(NCCc1c[nH]c2ccccc12)Nc1ccccc1C(F)(F)F,-6%
C[C@H](NC(c1ccc(F)cc1)c1ccc2cccnc2c1O)c1ccccc1 (stereo partly specified),-8%
CC(CN1c2ccccc2Sc2ccc(S(=O)(=O)N(C)C)cc21)N(C)C (stereo unspecified),i
O=C(c1nc(-c2cccnc2)c2ccccn12)N1CCOCC1,?
CC1(C(=O)N2CCC(c3ccccc3)CC2)CCc2cnc(Nc3ccncc3)nc21 (stereo unspecified),i
CCc1ccc(CNC(=O)CN(c2ccc(C)cc2)S(=O)(=O)N(C)C)cc1,?
CC(C)C(CO)Nc1nc(Nc2ccc(C(=O)O)c(Cl)c2)c2ncn(C(C)C)c2n1 (stereo unspecified),-23%
CCc1ccc(C2CC(=O)c3c([nH]c(C(=O)OCCOc4ccccc4)c3C)C2)cc1 (stereo unspecified),-17%
C=C1C[C@H](O)[C@@H](O)[C@@]2(C)C1[C@@H](O)[C@H]1OC(=O)C3[C@@H](C)[C@@H](O)[C@H](O)C2[C@]31C (stereo partly specified),-8%
